# Screening data (PubChem BioAssay)
# Cruzain noTriton – qHTS Assay for Promiscuous and Specific Inhibitors of Cruzain (without detergent); Cruzipain (Trypanosoma cruzi), P25779; purified cruzain, Z-FR-AMC fluorescence, no detergent; Potency, µM, inactives show max response, negative = inhibition, hits mostly inhibitors; hit rate 2.3% among 200,000; AID 1476, 2009; active = well fitted curve in the direction sought with a large enough effect; inconclusive = small, poorly fitted or top-dose-only effect, or another doubt; inactive = no such curve, though single readings can be large; an effect the other way counts as inactive or inconclusive;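 also: plate controls were enzyme without inhibitor for no effect and buffer without enzyme for full effect; nearly all actives have a fitted effect of over 40% in size; top concentration of the series not given in the record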
# Target sequence (P25779 123-467 limits assumed): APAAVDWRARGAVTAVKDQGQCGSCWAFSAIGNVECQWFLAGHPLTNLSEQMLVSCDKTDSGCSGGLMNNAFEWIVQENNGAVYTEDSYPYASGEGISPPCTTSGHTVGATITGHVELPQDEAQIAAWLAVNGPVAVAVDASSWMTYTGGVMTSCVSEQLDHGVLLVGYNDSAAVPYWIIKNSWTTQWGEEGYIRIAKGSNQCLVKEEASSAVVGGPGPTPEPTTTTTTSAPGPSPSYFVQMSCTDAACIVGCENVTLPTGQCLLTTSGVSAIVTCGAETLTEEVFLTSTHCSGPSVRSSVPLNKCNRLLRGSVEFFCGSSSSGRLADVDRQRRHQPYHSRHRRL
#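 Detergent-free condition (0.00005% Triton X-100) in acetate buffer pH 5.5 with DTT. 1.5 nM enzyme and compound were pre-mixed 15 min, then 2 uM Z-FR-AMC substrate added; reaction progress from fluorescence change between first and third reads (60 s).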
# MARV entry inh – qHTS for inhibitors of binding or entry into cells for Marburg Virus; Marburg virus pseudotyped entry inhibition, cell reporter; control for the full effect not named in the record; about a third of the inactives were read at about 46 µM; Potency, µM (top dose mostly 37.8 µM), for the others: at the top dose activity change, negative = inhibition, usual class: inhibitors; hit rate 1.8% among 300,000; AID 540276, 2011; active = well fitted inhibition curve with a large enough effect; inconclusive = small, poorly fitted or top-dose-only effect, or effect the other way; inactive = flat fitted curve, though single readings scatter; tested in HEK293 cells; about a fifth of its hits are not listed in these tables; also: % is scaled to controls: 0 for no effect and ±100 for the full control effect; luciferase read-out
# Cruzain inh Det – qHTS Assay for Promiscuous and Specific Inhibitors of Cruzain (with detergent); Potency, µM, inactives show max response, negative = inhibition, hits mostly inhibitors; purified cruzain, Z-FR-AMC fluorescence, 0.01% Triton; Cruzipain (Trypanosoma cruzi), P25779; hit rate 0.43% among 200,000; AID 1478, 2009; active = well fitted curve in the direction sought with a large enough effect; inconclusive = small, poorly fitted or top-dose-only effect, or another doubt; inactive = no such curve, though single readings can be large; an effect the other way counts as inactive or inconclusive;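 also: plate controls were neutral wells for no effect and buffer without enzyme for full effect; nearly all actives have a fitted effect of over 40% in size; top concentration of the series not given in the record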
#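 Cruzain (1.5 nM) preincubated 15 min at RT with compound in 100 mM sodium acetate pH 5.5, 5 mM DTT, 0.01% Triton X-100. Reaction started with 2 uM Z-FR-AMC; AMC fluorescence (ex 360/em 450 nm) change over 60 s gave rate.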
# NS1 inh – qHTS Assay for Inhibitors of Influenza NS1 Protein Function. AID 2326, 2010. S. cerevisiae slowed by influenza A NS1, growth recovery by OD600. hit rate 0.4% among 270,000. Potency, µM (highest dose often 46.1 µM), for the others: top-dose activity, positive = more growth; also: actives are rising curves; nearly all actives have a fitted effect of over 50% in size
#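 OD600 was taken as the measure of yeast growth restored by compound in an NS1-expressing S. cerevisiae strain. Cells had been washed out of glucose medium and diluted 1:100 into galactose -URA medium, pH 6.0.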
# RE007 growth inh – qHTS Assay for Inhibitors of the HIV-1 protein Vpr | S. pombe RE007 Vpr strain, BacTiter-Glo ATP luminescence, 24 h; control for the full effect not named in the record | Potency, µM (highest dose often 92.2 µM), without a hit: at the highest dose activity change, negative = less growth | hit rate 0.21% among 360,000; active = well fitted falling curve with a large enough effect; inconclusive = small, poorly fitted or top-dose-only effect; inactive = no such curve, though single readings can be large or run the other way;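 also: % is scaled to controls: 0 for no effect and ±100 for the full control effect; nearly all actives have a fitted effect of over 50% in size; the assay follows cell death caused by Vpr and the record does not say whether a fall means rescue or toxicity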
#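 Fission yeast strain RE007, carrying one chromosomally integrated HIV-1 vpr copy, was seeded at OD 0.01 in PMG+AL medium with 23 nL pinned compound. After 24 h at 30 °C and 99% humidity, viability was read by BacTiter-Glo luminescence.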
# Lassa entry inh – qHTS for Inhibitors of binding or entry into cells for Lassa Virus; hit rate 1.2% among 300,000; Lassa virus pseudotype entry inhibition, cell reporter; control for the full effect not named in the record; AID 540256, 2011; Potency, µM (highest dose often 37.9 µM), for the others: at the highest dose activity change, negative = inhibition, hits mostly inhibitors; active means well fitted inhibition curve with a large enough effect; inconclusive means small, poorly fitted or top-dose-only effect, or effect the other way; inactive means flat fitted curve, though single readings scatter; tested in HEK293 cells; also: % is scaled to controls: 0 for no effect and ±100 for the full control effect; nearly all actives have a fitted effect of over 50% in size; luciferase read-out
# SARS PLP yeast – qHTS of Yeast-based Assay for SARS-CoV PLP. S. cerevisiae expressing SARS-CoV PLpro, growth rescue; control for the full effect not named in the record. Potency, µM (doses to about 32.9 µM), for inactives: at the highest dose activity, positive = growth rescue. AID 485353, 2010. hit rate 0.19% among 330,000; also: 0% is about no effect; nearly all actives have a fitted effect of over 55% in size; growth read by luminescence after 48 h
# 2A StopGo – High Throughput Screening for Foot and Mouth Disease Virus Antivirals; human cells with a luciferase reporter of 2A StopGo recoding; control for the full effect not named in the record; AID 1159524, 2015; hit rate 1.2% among 410,000; Potency, µM (top dose mostly 57.9 µM), inactives show at the top dose signal change, negative = less light; active = well fitted falling curve with a large enough effect; inconclusive = small, poorly fitted or top-dose-only effect; inactive = no such curve, though single readings can be large or run the other way; tested in HEK293T cells; also: % is scaled to controls: 0 for no effect and ±100 for the full control effect; nearly all actives have a fitted effect of over 45% in size; luciferase light after 4 h
# The depositor's hits bear a star; u = inconclusive; x = not tested or not shown; [ ] = another dose, or the depositor's remark. Unless noted, calls follow the shape of the dose curve; as a rule, active means well fitted rising curve with a large enough effect; inconclusive means small, poorly fitted or top-dose-only effect; inactive means no such curve, though single readings can be large or run the other way. Potency is read from the fitted curve at half-maximal effect.
SMILES,Cruzain noTriton,MARV entry inh,Cruzain inh Det,NS1 inh,RE007 growth inh,Lassa entry inh,SARS PLP yeast,2A StopGo
O=C(CNC(=O)c1ccc(Cl)cc1Cl)Nc1ccc(F)cc1,x,4%[46.1 µM],x,-32%,-9%,19%,-2%,6%
CCOc1cccc(NC(=O)/C(C#N)=C\c2cccnc2)c1,x,-2%[46.1 µM],x,3%,4%,u,-1%,u
CC(C)c1nc(C(=O)N2CCc3c([nH]c4ccccc34)C2c2ccccn2)cs1 (stereo not given),x,u,x,4%,31%,u,-3%,-13%
CCCn1c(CN(C)Cc2ccccc2)nc2c1c(=O)n(C)c(=O)n2C,-1%,u,-2.4%,-3%,3%,u,11%,7.9µM*
Cn1c(=O)c2ccccc2n(CC(=O)Nc2ccc3c(c2)OCCO3)c1=O,x,u,x,11%,-2%,1%,2%,-18%
CCCOc1cccc(-c2cc(-c3n[nH]c(=S)n3CC)c3ccccc3n2)c1,-6%,u,-7.8%,-5%,11%,-24%,11%,-20%
N#Cc1c(NCc2ccccc2)ccnc1Cl,x,-12%,x,x,11%,-23%,x,0%
O=C(CSc1nc(-c2ccccc2)cn1-c1ccccc1F)Nc1ccc(F)cc1,-15%,x,-2.5%,x,x,u,x,-4%
CCC1CCCCN1S(=O)(=O)c1ccc(S(=O)(=O)N2CCN(S(=O)(=O)CC)CC2)cc1 (stereo not given),-9%,u,8.2%,5%,-3%,-11%,-10%,-16%
CCCOc1ccccc1N/C(=N\S(=O)(=O)c1ccc(C)cc1)Nc1nc(C)cc(C)n1,x,5%,x,x,6%,u,x,12%
CC1CCCN(C(=O)Nc2ccc(Br)cc2Cl)C1 (stereo not given),x,x,x,-12%,12%,x,1%,66%[activator]
Cc1ccccc1Cn1c(=O)n(CC2CCC(C(=O)N3CCC(C)CC3)CC2)c(=O)c2sccc21 (stereo not given),10%,x,-7.8%,x,x,u,x,u
O=C(CC(c1ccccc1)c1cc(Br)ccc1O)NCC1(c2ccccc2)CCCC1 (stereo not given),-20%,u,-1.2%,x,x,u,x,u
CN(C)C(=O)c1ccc(NC(=O)COC(=O)/C=C/c2cccs2)cc1,x,9%,x,x,-1%,u,3%,-12%
O=C1C2CCCN2C(c2cccs2)N1c1ccc(Cl)cc1 (stereo not given),2%,u,1.1%,-10%,-15%,7.3µM*,1%,13%
O=[N+]([O-])c1cccc2ccc(/C=C/c3ccc(C(F)(F)F)cc3)nc12,-4%,u,-9.8%,4%,22%,-6%,-2%,-26%
Cc1cc(N2C(=O)c3ccccc3C2=O)n(C)n1,x,u,x,-3%,-22%,-10%[46.1 µM],-1%,2%
COc1cc(/C=C2\Oc3cc(O)ccc3C2=O)ccc1O,x,x,x,-1%,-7%,x,-2%,77%[activator]
COc1cc(C(c2nnnn2C2CCCC2)N2CCc3ccccc3C2)ccc1O (stereo not given),5%,-5%,-6.5%,-36%,u,-10%,1%,-14%
CC(=O)N1c2ccc(S(=O)(=O)N3CCC(C(=O)N4CCCC(C)C4)CC3)cc2CC1C (stereo not given),x,u,x,3%,6%,u,4%,-19%
CCOc1ccccc1CNC(=O)Cn1nc(N2CCN(c3ccccc3)CC2)ccc1=O,26%,x,-1.0%,x,x,1%[46.1 µM],x,u
Cc1nc(NCCCO)c(C#N)c2c1COC(C)(C)C2,-7%,-1%[46.1 µM],-19%,-14%,38%,u,13%,-20%
O=C(Nc1cccc(-c2nnn(CC(=O)N3CCc4ccccc4C3)n2)c1)C1CCC1,u,10%,-3.2%,-4%,-3%,-20%,-4%,x
S=c1nc(-c2sccc2OCc2ccc(Cl)cc2Cl)[nH][nH]1,x,u,x,x,24%,u,7%,u
O=C(CCc1ccccc1)NNC(=S)NC(=O)c1ccc(Cl)cc1,-17%,u,4.9%,-112%,17%,u,-8%,x

# More structures
SMILES,Cruzain noTriton,MARV entry inh,Cruzain inh Det,NS1 inh,RE007 growth inh,Lassa entry inh,SARS PLP yeast,2A StopGo
CN(C)c1cccc2c1c(NC(=O)Nc1ccc(F)cc1F)nn2C,x,x,x,4%,-14%,x,1%,-6%
N=c1c(C(=O)NCc2ccco2)cc2c(=O)n3ccccc3nc2n1CC1CCCO1 (stereo not given),x,u,x,x,-21%,17%,x,-5%
Cn1cnnc1SCC(=O)c1cc2ccccc2oc1=O,-15%,13%,-2.1%,u,-10%,-1%,1%,x
CCOc1ccccc1NC(=O)Cn1nnc(C(=O)NCc2ccco2)c1N,-15%,u,5.0%,u,-15%,-17%,1%,9%
Cc1ccccc1N1C(=O)Cc2ccccc2C1=O,x,-1%[46.1 µM],x,20%,3%,14%[46.1 µM],-8%,-2%
O=C(C1=C(Nc2ccccc2)c2ccccc2S(=O)(=O)N1)c1ccccc1,-8%,11%,-12%,11%,5%,6%,-19%,0%
C/C(=C\c1ccccc1)C(=O)Nc1ccc(Cl)cn1,x,x,x,-28%,-9%,x,-12%,-14%
CC(C)(C)NC(=O)c1ccc(Cn2cc(C(F)(F)F)ccc2=O)cc1,x,u,x,1%,2%,-2%[46.1 µM],-8%,-6%
COc1ccc(CCNC(=O)C(=O)NCC(c2ccco2)S(=O)(=O)c2ccc(C)cc2)cc1 (stereo not given),u,x,-2.3%,x,x,u,x,u
CC(C)NC(=O)Cc1ccc(Br)cc1,4%,5%,0.4%,3%,-1%,0%,x,0%
S=C(NCc1ccc(Cl)c(Cl)c1)Nc1ccc2c(c1)OCO2,-27%,-6%,-13%,-25%,7%,9%,-47%,30%
O=C(OC(C(=O)NC1CCCC1)c1ccc(F)cc1)c1ccno1 (stereo not given),14%,1%,5.4%,-10%,8%,-1%,-3%,20%
CCOC(=O)c1c(NC(=O)c2ccc(S(=O)(=O)N(CC)CC)cc2)sc2c1CCCCC2,8%,x,1.0%,x,x,4%[46.1 µM],x,-13%
COc1ccc(CCNC(=O)CCNC(=O)c2ccc(Cl)cc2)cc1OC,16%,11%,1.5%,5%,-8%,12%,-25%,-7%
Cc1ccc(OCc2cc(C(=O)N3CCN(C4CCCC4)CC3)no2)cc1C,x,u,x,5%,-24%,-3%,2%,24%
CCc1cccc(OCC(=O)Nc2ccccc2N2CCCC2)c1,x,-12%,x,x,-1%,-26%,-6%,u
CCOC(=O)C(Cc1c(F)cccc1Cl)c1ccno1 (stereo not given),x,-26%[46.1 µM],x,-4%,-7%,0%[46.1 µM],1%,-16%
CCOC(=O)c1ccc2[nH]c3c(c2c1)CCCCC3=O,8%,-6%,-3.5%,-14%,-2%,u,2%,x
O=C(CNCc1cccs1)NC12CC3CC(CC(C3)C1)C2,x,9%,x,x,18%,16%,-9%,9%
CC(C(=O)Nc1ccc(C#N)cc1)N(C)Cc1cccs1 (stereo not given),x,u,x,0%,4%,-39%,1%,-7%
Cc1nc(SCC(=O)c2ccccc2)c([N+](=O)[O-])[nH]1,1%,12%,-0.1%,2%,0%,6%,2%,1%
CC(SCc1ccccc1)C(=O)Nc1ccc2c(c1)OCO2 (stereo not given),1%,22%,1.2%,-9%,-5%,u,1%,21%
COc1ccccc1NC(=O)N1CCCC1C(=O)NCC1CCCO1 (stereo not given),x,-5%,x,-1%,11%,2%,0%,-28%
CCOC(=O)CN(C#N)c1nc(C)cc(C)n1,-21%,-21%,1.3%,5%,3%,u,10%,0%
CC1=NNC(=O)C1CCC(=O)N/N=C(/C)c1ccc([N+](=O)[O-])cc1 (stereo not given),1%,14%,-3.7%,0%,-5%,7%,-8%,-11%

# Remaining list, next part.
SMILES,Cruzain noTriton,MARV entry inh,Cruzain inh Det,NS1 inh,RE007 growth inh,Lassa entry inh,SARS PLP yeast,2A StopGo
O=C1CCC(C(=O)N(Cc2cccs2)C2(C(=O)NC3CCCCC3)CCCCC2)N1 (stereo not given),x,u,x,x,-2%,9%,3%,-7%
Cc1ccn2c(=O)nc(SCC(=O)N3CCC(Cc4ccccc4)CC3)nc2c1,x,0%[46.1 µM],x,x,-3%,2%,1%,-18%
CC1(C)Cc2cccc(OCC(=O)OCC(=O)Nc3ccccc3)c2O1,x,21%,x,x,-15%,2%,-16%,-8%
COc1cc(/C=C(\C#N)c2nc3c(s2)CC(C)CC3)ccc1O (stereo not given),u,2%,-11%,7%,x,x,1%,x
Cc1cccc(OCC(=O)NCCCNC(=O)c2cnccn2)c1,x,1%[46.1 µM],x,3%,8%,19%,1%,-8%
C=CCc1cccc(/C=N/n2c(C)nnc2C)c1O,-10%,-2%,0.7%,12%,-7%,-5%,9%,15%
COc1ccc(CCNC(=O)CSc2nc(-c3ccc(OC)c(OC)c3)ccc2C#N)cc1,7%,u,-5.0%,17%,16%,u,-12%,-30%
CCOc1ccc(Br)cc1S(=O)(=O)N1CC(C)OC(C)C1 (stereo not given),-3%,1%,4.6%,-12%,-5%,2%,1%,-4%
O=C(COC(=O)c1ccc(CSc2ccc(Cl)cc2)cc1)Nc1ccccc1,u,-4%,-1.3%,-5%,x,8%,4%,11%
CCOCC(=O)Nc1ccc([N+](=O)[O-])cc1Cl,x,u,x,x,17%,6%[46.1 µM],-2%,-3%
Cn1c(/C=C/c2ccccc2[N+](=O)[O-])nc2ccccc2c1=O,x,-15%[46.1 µM],x,-9%,-6%,-8%[46.1 µM],-9%,14%
Cc1ccc(C)c(NC(=S)NNC(=O)c2csc3c2CCCC3)c1,-1%,-18%,2.1%,-6%,2%,-2%,19%,10%
CCn1c(SCC(=O)c2cc(C)n(-c3ccc(C(=O)OC)cc3)c2C)nnc1-c1cccnc1,0%,u,-0.4%,u,-7%,u,u,u

# The order is random; 4.7% or so of the library scored in one or more.
